SARS PLP yeast – blocks SARS-CoV papain-like protease in a yeast assay; Potency, µM (series often up to 32.9 µM), for inactives: at the highest dose activity, positive = growth rescue; 0.19% of 330,000 active; S. cerevisiae expressing SARS-CoV PLpro, growth rescue; control for the full effect not named in the record; active means well fitted rising curve with a large enough effect; inconclusive means small, poorly fitted or top-dose-only effect; inactive means no such curve, though single readings can be large or run the other way; further: 0% is about no effect; nearly all actives have a fitted effect of over 55% in size; growth read by luminescence after 48 h
2A StopGo – lowers the luciferase signal of an FMDV 2A StopGo reporter. human cells with a luciferase reporter of 2A StopGo recoding; control for the full effect not named in the record. Potency, µM (titrated, usually from 57.9 µM), without a hit: at the top dose signal change, negative = less light. 1.2% of 410,000 active. AID 1159524; active = well fitted falling curve with a large enough effect; inconclusive = small, poorly fitted or top-dose-only effect; inactive = no such curve, though single readings can be large or run the other way; tested in HEK293T cells; further: on the % scale 0 is the no-effect control and ±100 the full control effect; nearly all actives have a fitted effect of over 45% in size; luciferase light after 4 h
MARV entry inh – Marburg virus entry inhibition. AID 540276. Potency, µM (top dose mostly 37.8 µM), inactives show top-dose activity change, negative = inhibition, actives largely listed as inhibitors. Marburg virus pseudotyped entry inhibition, cell reporter; control for the full effect not named in the record; about a third of the inactives were read at about 46 µM. 1.8% of 300,000 active; active = well fitted inhibition curve with a large enough effect; inconclusive = small, poorly fitted or top-dose-only effect, or effect the other way; inactive = flat fitted curve, though single readings scatter; tested in HEK293 cells; about a fifth of its hits are not listed in these tables; further: on the % scale 0 is the no-effect control and ±100 the full control effect; luciferase read-out
Cruzain inh Det – blocks cruzain activity in presence of Triton detergent; P25779; purified cruzain, Z-FR-AMC fluorescence, 0.01% Triton; Potency, µM, without a hit: max response, negative = inhibition, actives largely listed as inhibitors; 0.43% of 200,000 active; AID 1478;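 further: plate controls were neutral wells for no effect and buffer without enzyme for full effect; nearly all actives have a fitted effect of over 40% in size; top concentration of the series not given in the record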
Target sequence (P25779 123-467 limits assumed): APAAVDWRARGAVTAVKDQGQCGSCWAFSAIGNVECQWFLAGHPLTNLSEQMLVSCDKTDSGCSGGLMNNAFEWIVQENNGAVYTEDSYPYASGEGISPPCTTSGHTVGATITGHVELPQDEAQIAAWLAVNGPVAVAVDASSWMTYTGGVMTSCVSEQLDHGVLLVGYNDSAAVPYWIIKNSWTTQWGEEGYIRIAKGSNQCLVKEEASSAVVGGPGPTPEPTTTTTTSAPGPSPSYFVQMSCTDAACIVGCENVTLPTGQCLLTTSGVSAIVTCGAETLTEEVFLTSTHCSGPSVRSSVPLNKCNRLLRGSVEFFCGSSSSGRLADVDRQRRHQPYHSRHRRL
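Enzyme 1.5 nM, Z-FR-AMC 2 uM, NaOAc 100 mM pH 5.5, DTT 5 mM, Triton X-100 0.01%; 15 min RT compound preincubation; kinetic ex360/em450, 60 s delta.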
NS1 function inh – blocks influenza NS1 protein function; S. cerevisiae slowed by influenza A NS1, growth recovery by OD600; AID 2326; 0.4% of 270,000 active; Potency, µM (highest dose often 46.1 µM), without a hit: top-dose activity, positive = more growth; active means well fitted rising curve with a large enough effect; inconclusive means small, poorly fitted or top-dose-only effect; inactive means no such curve, though single readings can be large or run the other way; further: nearly all actives have a fitted effect of over 50% in size
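S. cerevisiae expressing influenza A NS1, grown in glucose, washed, then diluted 1:100 into pH 6.0 -URA galactose medium with 23 nl compound. Growth recovery read as OD600; NS1-free strain serves as control.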
Cruzain inh noDet – cruzain (T. cruzi) inhibition without detergent; purified cruzain, Z-FR-AMC fluorescence, no detergent; Potency, µM, for inactives: max response, negative = inhibition, most hits filed as inhibitors; 2.3% of 200,000 active;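 further: plate controls were enzyme without inhibitor for no effect and buffer without enzyme for full effect; nearly all actives have a fitted effect of over 40% in size; top concentration of the series not given in the record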
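Purified cruzain at 1.5 nM, pre-incubated 15 min with compound at room temperature in 100 mM sodium acetate pH 5.5, 5 mM DTT, 0.00005% Triton X-100. Reaction started with 2 uM Z-FR-AMC; AMC fluorescence increase over 60 s gives rate.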
RE007 growth inh – less growth of the S. pombe RE007 Vpr strain; S. pombe RE007 Vpr strain, BacTiter-Glo ATP luminescence, 24 h; control for the full effect not named in the record; Potency, µM (highest dose often 92.2 µM), for the others: at the highest dose activity change, negative = less growth; 0.21% of 360,000 active; active = well fitted falling curve with a large enough effect; inconclusive = small, poorly fitted or top-dose-only effect; inactive = no such curve, though single readings can be large or run the other way;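 further: on the % scale 0 is the no-effect control and ±100 the full control effect; nearly all actives have a fitted effect of over 50% in size; the assay follows cell death caused by Vpr and the record does not say whether a fall means rescue or toxicity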
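Fission yeast RE007 carrying one integrated HIV-1 vpr copy, seeded at OD 0.01 in PMG+AL medium with 23 nL pinned compound. Grown 24 h at 30 degrees; viability read by BacTiter-Glo luminescence after 5 min.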
LASV entry inh – blocks Lassa virus binding to or entry into cells | Lassa virus pseudotype entry inhibition, cell reporter; control for the full effect not named in the record | Potency, µM (top dose mostly 37.9 µM), without a hit: top-dose activity change, negative = inhibition, most hits filed as inhibitors | 1.2% of 300,000 active | AID 540256; active means well fitted inhibition curve with a large enough effect; inconclusive means small, poorly fitted or top-dose-only effect, or effect the other way; inactive means flat fitted curve, though single readings scatter; tested in HEK293 cells; further: on the % scale 0 is the no-effect control and ±100 the full control effect; nearly all actives have a fitted effect of over 50% in size; luciferase read-out
* = called active by the depositor; ? = inconclusive; · = no result given; & = joins results of further samples; [ ] = dose if it differs, or a comment. Unless noted, the call rests on the fitted dose curve; in most records, active means well fitted curve in the direction sought with a large enough effect; inconclusive means small, poorly fitted or top-dose-only effect, or another doubt; inactive means no such curve, though single readings can be large; an effect the other way counts as inactive or inconclusive. Potency means the concentration at half of the fitted maximal effect. Random draw from the library, and some 4.8% of all compounds hit somewhere here.

SMILES	SARS PLP yeast	2A StopGo	MARV entry inh	Cruzain inh Det	NS1 function inh	Cruzain inh noDet	RE007 growth inh	LASV entry inh
CN(C(=O)c1c[nH]c2ccc(S(=O)(=O)Nc3cccc(C(F)(F)F)c3)cc2c1=O)C1CCCCC1	·	-2%	·	-11%	·	?	·	-28%[46.1 µM]
CCN1CSC(=S)N(Cc2ccc(OC)cc2)C1	-2%	-13%	·	·	-176%&-13%	·	-3%	·
CCOC(=O)c1sc2ccccc2c1NC(=O)c1coc2ccccc2c1=O	-6%	?	?	-2.4%	-3%	0%	-8%	16%
CC(C)[N+]1=C2C=CC=CC=C2SC12C([N+](=O)[O-])=CC(=[N+]([O-])[O-])C=C2[N+](=O)[O-] (stereo not given)	1%	-12%	·	·	5%	·	3%	·
CC12CCC(=O)N1C(C(=O)Nc1ccc(F)cc1)CS2 (stereo not given)	-1%	-7%	·	·	-2%	·	-9%	·
Cc1nc(NC2=NCN(CCc3ccccc3)CN2)nc2ccccc12	0%	·	·	-1.5%	-7%	-10%	·	·
Cc1c(C)n(C)c2ccc(C(=O)N3CCN(c4ccccn4)CC3)cc12	-3%	-16%	·	·	-1%	·	2%	·
CCC(C)n1c(=N)c(C(=O)NCc2ccccc2)cc2c(=O)n3cc(C)ccc3nc21 (stereo not given)	·	-11%	1%[46.1 µM]	-3.5%	·	19%	·	1%[46.1 µM]
O=C(NN=C1CCCC1)c1cc(O)cc(O)c1	1%	-18%	·	·	6%	·	14%	·
O=C(COc1ccc(Br)cc1)N1CCC(c2ccccc2)C1 (stereo not given)	-3%	-14%	23%	-5.1%	-25%	1%	-21%	-29%
COc1ccc(NS(=O)(=O)c2ccc(N3CCOCC3)c(NC(=O)c3ccc(OC)cc3)c2)cc1	17%	49%[activator]	?	-6.4%	?	15%	·	?
CO[C@H]1/C=C/O[C@@]2(C)Oc3c(C)c(O)c4c(O)c(c5c(c4c3C2=O)NC2(CCN(CC(C)C)CC2)N=5)=NC(=O)/C(C)=C\C=C\[C@H](C)[C@H](O)[C@@H](C)[C@@H](O)[C@@H](C)[C@H](OC(C)=O)[C@@H]1C	·	?	·	-3.1%	·	?	-24%	·
CCN(CC)CCn1c(NCc2cccc(OC)c2)nc2ccccc21	10%	1%	-23%	4.2%	7%	7%	-15%	-1%
O=C(NNC(=O)C1[C@H]2CCCC[C@@H]12)c1ccc(=O)oc1 (stereo not given in full)	1%	16%	?	·	2%	·	12%	-2%[46.1 µM]
NC(=O)NC1(C(=O)O)CCCC1	·	-16%	3%[46.1 µM]	·	·	·	-8%	2%[46.1 µM]
Cc1nc2ccccc2c(=O)n1-c1ccc(F)cc1	7%	·	18%	-0.1%	0%	?	4%	-9%
O=C(CCNC(=O)c1ccc(Br)o1)NCc1ccc(Cl)cc1	-1%	-14%	-2%	1.5%	-1%	9%	-21%	7%
O=C(COc1ccccc1)Nc1nc2c(s1)CCCC2	-2%	44%[activator]	6.3µM*	·	-8%	·	?	?
CCOc1ccccc1NC(=O)c1nc(S(=O)(=O)Cc2cccc(C)c2)ncc1Cl	-9%	14µM*	-6%&-6%[46.1 µM]	-0.9%	6%	-10%	4%	2%[46.1 µM]
O=C(CSc1nnc(-c2ccco2)n1-c1ccccc1Cl)Nc1cccc(C(=O)O)c1	?	8%	·	·	26%	·	3%	·
CCN1CCN(C(=S)Nc2ccc(Cl)cc2Cl)CC1	-2%	62%[activator]	-37%	-0.1%	3%	-1%	-10%	-24%
c1ccc(CSc2ncnc3sccc23)cc1	-2%	7%	·	·	-1%	·	-7%	·
O=C(CCc1ccccc1)Nc1ccc(S(=O)(=O)N2CCOCC2)cc1	1%	-8%	1%[46.1 µM]	·	-1%	·	7%	-25%
CCc1cccc(C)c1NC(=O)CN1C(=O)c2ccccc2S1(=O)=O	2%	-13%	·	3.1%	6%	-4%	2%	·
O=C(CC(C(=O)O)c1cccc(Cl)c1Cl)c1ccccc1 (stereo not given)	0%	25%	3%	·	-1%	·	7%	9%
COc1cccc(CC(=O)Nc2ccc(-c3nc4ccccc4s3)cc2)c1	·	20%	·	0.0%	·	-17%	·	20%[46.1 µM]
COC(=O)c1scc(-c2ccc(C)cc2)c1S(=O)(=O)Nc1c(C)cc(C)cc1C	·	20%	·	-2.1%	·	-8%	·	-3%[46.1 µM]
CCCS(=O)(=O)c1nc(S(=O)(=O)c2ccc(C)cc2)c(NCCN2CCOCC2)s1	2%	-11%	10%	-2.0%	-12%	-1%	-30%	-5%
Cc1c(C(=O)OC(C)C)sc(NC(=O)C2c3ccccc3Oc3ccccc32)c1C(=O)OC(C)C	·	5%	?	-0.5%	·	?	·	-21%[46.1 µM]
CN1/C(=C/C(=O)c2nc(S(C)(=O)=O)ncc2Cl)C(C)(C)c2ccccc21	-21%	10µM*	?	-10%	-93%	15%	12%	16µM*
Cc1ccc(C(C(=O)NC2CCCC2)N(C(=O)c2csnn2)C2CCCC2)o1 (stereo not given)	-1%	-20%	-17%	-1.1%	-2%	6%	-2%	14%
CCSc1ncc(Cl)c(C(=O)Nc2nnc(CC)s2)n1	·	-11%	?	-7.8%	·	-18%	·	0%[46.1 µM]
Cc1ccc(-c2nc3cc(C(C)C)ccc3o2)cc1NC(=O)c1cc2ccccc2o1	·	11%	10%[46.1 µM]	-0.7%	·	?	·	?
O=C(CNC(=O)c1ccccc1F)N/N=C/c1ccco1	-3%	1%	·	·	1%	·	17%	·
CSc1cccc(Nc2cc(C(=O)NCCc3ccc(Cl)cc3)c3ccccc3n2)c1	·	-30%	?	-3.0%	·	?	·	-9%[46.1 µM]
COc1ccc(/C=C(/NC(=O)c2ccccc2)C(=O)N2CCCCC2)cc1OC	14%	-2%	·	·	11%	·	-16%	·
COC(=O)CSc1nc2[nH]ncc2c(=O)[nH]1	0%	-4%	-3%	·	·	·	6%	6%
CCOC(=O)C1=C(C)OC(N)=C(C#N)C1c1cc(SCC)oc1C (stereo not given)	1%	-12%	-13%[46.1 µM]	·	·	·	?	4%[46.1 µM]
COc1cccc(Nc2nc3ccc(C)cc3nc2-n2nc(C)cc2C)c1	·	-10%	16%[46.1 µM]	1.0%	·	-3%	·	28%[46.1 µM]
O=[N+]([O-])c1ccc(F)cc1OCc1nc(-c2cccs2)no1	-4%	45%[activator]	-7%[46.1 µM]	·	·	·	58%	?
O=C(O)c1ccccc1N(c1ccccc1)c1ccccc1	·	-5%	20%[46.1 µM]	·	·	·	-7%	0%
CN(Cc1ccc(F)cc1)C(=O)c1cc(S(=O)(=O)N2CCCCC2)ccc1N1CCOCC1	-2%	14%	-21%	·	·	·	-1%	-6%
CN(CC(=O)Nc1ccccc1Cl)C1CCCCC1	-1%	-6%	-27%	·	-1%	·	-21%	-3%
Cc1cccc(N2C(=O)NC(=O)/C(=C/c3cc4c(cc3[N+](=O)[O-])OCO4)C2=O)c1	8%	?	19%[46.1 µM]	·	·	·	0%	1%
O=C(Cc1ccccc1)Nc1ccc(N2CCCC2)cc1	2%	24%	7%[46.1 µM]	?	9%	13µM*	-11%	15%
COc1ccc(S(=O)(=O)NCc2ccc(C(=O)NCc3ccccc3)cc2)cc1	·	5%	-3%[46.1 µM]	-2.6%	·	2%	·	3%[46.1 µM]
CCOC(=O)c1c(-c2ccccc2)oc2ccc(OCc3cccc(Br)c3)cc12	·	12%	·	-5.7%	·	10µM*	·	5%[46.1 µM]
CCS(=O)(=O)N1Cc2ccccc2CC1C(=O)Nc1nc2c(C)cccc2s1 (stereo not given)	-34%	18%	4%	-12%	2%	25µM*	7%	-1%
S=C1NC2=C(CCCC2)C2(CCCCC2)N1	20%	6%	10%	0.1%	-1%	-3%	-10%	3%
O=C(COc1coc(CN2CCN(c3ccc(F)cc3)CC2)cc1=O)NC1CCCCC1	·	?	4%	·	·	·	5%	-1%
COc1cccc(NC(=O)CC2Oc3ccccc3NC2=O)c1 (stereo not given)	0%	-2%&-3%	28%[46.1 µM]	-1.9%	-2%	6%	7%	·
C/C(=N/NC(=O)c1cn(-c2cccc(C)n2)cn1)c1ccc(C)cc1	4%	-9%	1%	3.8%	16%	1%	4%	16%
COc1ccc(CNCc2ccncc2)cc1OC	4%	9%	2%	·	-3%	·	-18%	16%
COc1cc(/C=C2\N=C(C)OC2=O)cc(Cl)c1OC(C)=O	2%	-29%	·	·	0%	·	-2%	·
O=C(NCCc1csc(-c2ccccc2)n1)c1cccs1	-8%	-13%	·	-2.3%	-23%	-17%	-6%	·
COc1ccccc1CNC(=O)C1Cc2ccccc2C(=O)O1 (stereo not given)	0%	10%	6%	·	-1%	·	4%	3%
OCC[C@@H]1C[C@@H](O)[C@H](O)[C@@]2(CCc3ccccc3CO2)O1	1%	-5%	·	·	-14%	·	1%	·
O=C(CC1C(=O)NCCN1CC(c1ccccc1)c1ccccc1)NCCc1cn[nH]c1 (stereo not given)	1%	-16%	17%[46.1 µM]	·	?	·	8%	0%[46.1 µM]
Cc1ccc(NC(=O)CSc2nc3ccc(NC(=O)c4ccco4)cc3s2)cc1	·	-21%	2%[46.1 µM]	-6.3%	·	-6%	·	3%[46.1 µM]
CCOC(=O)c1c(NC(=O)c2ccc(OC)cc2)sc2c1CCCCC2	·	-11%	·	-1.9%	·	1%	·	-17%[46.1 µM]

New compounds follow.
SMILES	SARS PLP yeast	2A StopGo	MARV entry inh	Cruzain inh Det	NS1 function inh	Cruzain inh noDet	RE007 growth inh	LASV entry inh
S=C1CN=C(c2ccccc2)c2cc(Cl)ccc2N1	9%	0%	10%	-11%	4%	12%	11%	-1%
COc1ccc2cnn(-c3ccccc3C)c(=O)c2c1OC	7%	2%	?	-2.1%	-14%	-1%	17%	?
CCOC(=O)c1cc(-c2ccccc2)n(-c2cccc(C(=O)N(C)c3ccc(C)cc3)c2)c1C	·	-25%	·	-4.5%	·	-4%	·	?
Clc1ccc(CNCCc2ccc3c(c2)OCO3)cc1	-1%	17%	?	·	2%	·	-8%	11%[46.1 µM]
CCOc1cc(C)ccc1OCc1nnc(SCC(=O)Nc2cccc(C(=O)O)c2)n1-c1ccccc1	12%	-10%	·	·	26%	·	-7%	·
CCOC(=O)C1CCCC(NS(=O)(=O)c2ccc(NC(C)=O)cc2)C1 (stereo not given)	1%	-7%	2%	0.6%	-8%	-4%	5%	?
COc1ccccc1CNCc1cccs1	-4%	-4%	-22%	5.4%	-3%	3%	2%	-2%
